Screening data deposited in PubChem BioAssay by National Center for Advancing Translational Sciences (NCATS).
Six1-Eya2 inh: inhibitors of human Six1/Eya2 interaction | Q15475+O00167 | AlphaScreen GST-Six1/His-Eya2 binding, biochemical; stronger effect = lower value; control for the full effect not named in the record | activity change, % (test concentration not listed) | 360,000 compounds, 0.56% hits | AID 651725; in the data active = activity change below about -65%; inconclusive = about -30% to -65%; inactive = above about -30%; also: % is scaled to controls: 0 for no effect and ±100 for the full control effect
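Homogeneous AlphaScreen proximity assay pairing GST-Six1 with His-tagged Eya2 (added as 5X mix: 250 nM and 500 nM) in 50 mM Tris pH 8.0, 300 mM NaCl, 1 mM TCEP. Glutathione donor and nickel acceptor beads; 1 h, 37 °C, dark.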
CtBP-E1A blk: CtBP/E1A binding inhibition; AlphaScreen GST-E1A/His-CtBP binding, 1536-well; stronger effect = lower value; control for the full effect not named in the record; activity change, % (no concentration beside the values); 340,000 compounds, 0.49% hits; AID 651724; in the data active means activity change below about -65%; inconclusive means about -30% to -65%; inactive means above about -30%; also: % is scaled to controls: 0 for no effect and ±100 for the full control effect
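Steps: dispense buffer (Tris pH 8.0, NaCl 300 mM, TCEP 1 mM, BSA, Tween 20); add 5X protein mix (GST-E1A, His-CtBP, 125 nM each); pin 23 nL compound; 2 h at 37 °C, dark; add 5X beads (50 ug/mL); 1 h; read.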
TRPML1 inh: inhibitors of human TRPML1 channel; TRPML1-inducible cells, Ca2+ dye fluorescence, FDSS; stronger effect = lower value; inhibition of EC80 agonist-evoked calcium signal; activity change, negative = inhibition, % (concentration not given with the values); 390,000 compounds, 0.02% hits; in the data active means activity change below about -50%; inconclusive means about -30% to -50%; inactive means above about -30%;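 also: stimulus is agonist 54-4 at its EC80 concentration; % is scaled to controls: 0 for no effect and ±100 for the full control effect; the text of the record puts the active cut at -80%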
Target sequence (Q9GZU1 whole entry, looked up): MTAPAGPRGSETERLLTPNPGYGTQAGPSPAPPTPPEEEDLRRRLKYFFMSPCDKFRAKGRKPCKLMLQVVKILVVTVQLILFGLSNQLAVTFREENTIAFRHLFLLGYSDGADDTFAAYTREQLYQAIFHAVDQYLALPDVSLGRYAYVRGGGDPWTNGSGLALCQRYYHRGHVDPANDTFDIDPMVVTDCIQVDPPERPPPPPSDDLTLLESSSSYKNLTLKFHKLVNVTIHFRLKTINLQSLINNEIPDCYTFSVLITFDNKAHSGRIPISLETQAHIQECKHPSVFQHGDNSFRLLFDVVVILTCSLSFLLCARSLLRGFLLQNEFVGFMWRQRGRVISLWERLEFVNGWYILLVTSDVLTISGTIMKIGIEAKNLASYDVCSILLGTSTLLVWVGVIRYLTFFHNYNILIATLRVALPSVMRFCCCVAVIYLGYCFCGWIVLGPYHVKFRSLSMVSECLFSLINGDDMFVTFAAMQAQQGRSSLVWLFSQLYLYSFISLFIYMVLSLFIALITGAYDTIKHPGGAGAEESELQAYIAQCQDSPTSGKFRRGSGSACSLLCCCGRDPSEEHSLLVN
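Calcium fluorescence in TRPML1-DL cells induced overnight with Tet: a 110 s read after compound pin addition, then a 110 s antagonist read after challenge with 54-4 at 4 uM final (EC80).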
TRPML1 agonist: agonists of human TRPML1 channel; Q9GZU1; AID 624414; activation, % (concentration not given with the values); TRPML1-expressing cells, Ca2+ dye fluorescence, FDSS; host cell line not named in the record; reference of the full effect not given here; 410,000 compounds, 0.12% hits; in the data active = activation above about 50%; inconclusive = about 30% to 50%; inactive = below about 30%; also: 0% is about no effect; the text of the record puts the active cut at 80%
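Cells: TRPML1-DL, 1X Tet inducer, ~16 h at 37 degrees C/5% CO2. Dye: ABD Ca8 no-wash + quencher, 45-90 min RT. Read: 10 s baseline, compound add, 110 s agonist phase; 54-4 EC80 (4uM final), 110 s antagonist phase.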
TRPV1 PAM: human TRPV1 potentiation; Q8NER1; potentiation, % at 8.33 µM; TRPV1-expressing cells, Fluo-8 calcium influx, capsaicin EC20 potentiation; host cell line not named in the record; control for the full effect not named in the record; 320,000 compounds, 0.02% hits; active means potentiation above 80%; inconclusive means 30% to 80%; inactive means below 30%; also: 0% is about no effect
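Fluo-8 calcium influx in TRPV1-expressing cells, kinetic read (ex 480/em 520 nm). Compound added and read 3 min for agonist activity, followed by capsaicin at EC20 final and 2 min further read for enhancement.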
D2 potentiator: human D2 receptor positive allosteric modulation; P14416; DiscoveRx D2 beta-arrestin cells, luminescence, 90 min; 100% = 57 uM dopamine signal; potentiation, % (no concentration beside the values); 360,000 compounds, 0.23% hits; active = potentiation of 50% or more; inconclusive = 30% to 50%; inactive = 30% or less;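 also: compound concentration not given in the record; tested on top of an EC20 dose of dopamine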
Target sequence (P14416 whole entry, looked up): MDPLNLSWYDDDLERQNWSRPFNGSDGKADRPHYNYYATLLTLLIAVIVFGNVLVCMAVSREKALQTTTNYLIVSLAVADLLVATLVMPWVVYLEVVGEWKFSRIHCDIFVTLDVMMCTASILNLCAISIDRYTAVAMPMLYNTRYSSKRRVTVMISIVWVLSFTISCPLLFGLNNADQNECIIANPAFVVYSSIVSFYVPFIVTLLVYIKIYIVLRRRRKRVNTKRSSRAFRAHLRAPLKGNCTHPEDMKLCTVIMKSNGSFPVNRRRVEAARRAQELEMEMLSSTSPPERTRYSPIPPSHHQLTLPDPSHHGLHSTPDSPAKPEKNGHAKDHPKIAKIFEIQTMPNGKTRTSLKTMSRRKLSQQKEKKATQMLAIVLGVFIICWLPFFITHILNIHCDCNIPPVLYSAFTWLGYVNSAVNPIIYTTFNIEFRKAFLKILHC
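PathHunter D2 cells, attached overnight at 37 deg C, received compound in DMSO plus dopamine at EC20 (50 nM final) for 90 min at 37 deg C. Beta-arrestin recruitment was read as luminescence after 1 h with detection reagent at ambient temperature.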
An asterisk follows results filed as active; & = joins results of further samples.

Results for CCOC(=O)c1ccc(NC(=O)CSc2nnc(C3CC3)n2C)cc1 ?
Six1-Eya2 inh: -0.2; CtBP-E1A blk: -2.1; TRPML1 inh: 0.1; TRPML1 agonist: -1.0; TRPV1 PAM: -6.0; D2 potentiator: -10.8

How did CC(=O)Nc1ccc(N(C(=O)CNC(=O)c2ccco2)C(C(=O)NCc2ccco2)c2ccccc2F)cc1 (stereo not drawn) do in these assays?
Six1-Eya2 inh: -17.6; CtBP-E1A blk: -11.7; TRPML1 inh: -7.8; TRPML1 agonist: -0.7; TRPV1 PAM: -2.6; D2 potentiator: -4.5

Results for CC1(C)CN(c2ccccc2)C(=O)[C@H]1CC(=O)Nc1ccccc1 ?
Six1-Eya2 inh: -0.9; CtBP-E1A blk: 2.3; TRPML1 inh: -6.5; TRPML1 agonist: -0.3; D2 potentiator: 0.2

How did O=C(CN(Cc1ccc(F)cc1)C(=O)CNS(=O)(=O)c1ccccc1)NCC1CCCO1 (stereo not drawn) do in these assays?
Six1-Eya2 inh: 6.1; CtBP-E1A blk: 14.8; TRPML1 inh: -17.6; TRPML1 agonist: -0.9; TRPV1 PAM: -10.0; D2 potentiator: 3.7

Results for Cc1ccccc1NC(=O)c1cc(S(=O)(=O)N2CCOCC2)cs1 ?
Six1-Eya2 inh: -0.8; CtBP-E1A blk: 17.4; TRPML1 inh: -20.6; TRPML1 agonist: -0.9; TRPV1 PAM: -0.9; D2 potentiator: 17.1

What do the screens show for `O=C(Cc1ccccn1)c1ccc(Cl)cc1`?
Six1-Eya2 inh: 8.7; CtBP-E1A blk: 10.5; TRPML1 inh: 8.6; TRPML1 agonist: -0.2; TRPV1 PAM: 6.7; D2 potentiator: -11.8

Results for O=C(NCc1ccncc1)C1Cc2c(-c3ccccc3Oc3ccccc3)ccnc2O1 (stereo not drawn) ?
Six1-Eya2 inh: -24.0; CtBP-E1A blk: -12.8; TRPML1 agonist: 5.1; D2 potentiator: -17.0

Results for CC1CCN(S(=O)(=O)c2ccc(-c3nnc(SCc4cccnc4)o3)cc2)CC1 ?
Six1-Eya2 inh: 3.2; CtBP-E1A blk: 3.3; TRPML1 inh: 1.4; TRPML1 agonist: 0.1; TRPV1 PAM: 9.7; D2 potentiator: -1.2

Results for Cc1cccc(C)c1NC(=O)CCCn1nc(C)c2c(C)n(-c3ccccc3)nc2c1=O ?
Six1-Eya2 inh: 0.8; CtBP-E1A blk: 2.0; TRPML1 inh: -20.7; TRPML1 agonist: 1.1; TRPV1 PAM: -10.0; D2 potentiator: -2.8

Results for Cc1cc(C)cc(NC(=O)C(OC(=O)c2cc[n+]([O-])cc2)c2ccccc2)c1 (stereo not drawn) ?
Six1-Eya2 inh: 5.8; CtBP-E1A blk: 6.2; TRPML1 inh: 8.3; TRPML1 agonist: -0.3; TRPV1 PAM: 0.0; D2 potentiator: 1.4

How did COc1ccc(/C(O)=C2/C(=O)C(=O)N(CCN3CCOCC3)C2c2ccccn2)cc1OC (stereo not drawn) do in these assays?
Six1-Eya2 inh: -13.0; CtBP-E1A blk: -8.5; TRPML1 inh: -0.7; TRPML1 agonist: 2.3; TRPV1 PAM: -6.4; D2 potentiator: -5.2

How did CCN(CC)C(=O)N1c2ccccc2Sc2ccccc21 do in these assays?
Six1-Eya2 inh: -7.1; TRPV1 PAM: -16.4; D2 potentiator: 0.4

Results for O=C(NCc1ccc(F)c(F)c1)c1ccc(-c2ccc(F)c(F)c2)c2ccoc12 ?
Six1-Eya2 inh: 17.0; CtBP-E1A blk: 18.1; TRPML1 agonist: -0.3; D2 potentiator: -5.7

What do the screens show for `COc1ccc(Cn2c(=O)oc3ccc(C)cc32)cc1`?
Six1-Eya2 inh: 5.0; CtBP-E1A blk: 14.9; TRPML1 inh: -6.2; TRPML1 agonist: 0.3; TRPV1 PAM: -3.2; D2 potentiator: -4.2

How did COc1ccc(/C=N/Nc2cc(C)nc3c(C)cccc23)cc1 do in these assays?
Six1-Eya2 inh: -12.7; CtBP-E1A blk: -13.7; TRPML1 inh: -15.8; TRPML1 agonist: 0.2; TRPV1 PAM: -7.1; D2 potentiator: -2.8

What do the screens show for `Cc1ccccc1C(=O)NC(=S)NCCc1ccccc1`?
Six1-Eya2 inh: -2.1; CtBP-E1A blk: 15.1; TRPML1 inh: 6.9; TRPML1 agonist: 5.2; TRPV1 PAM: -9.5; D2 potentiator: 2.7

Results for Cc1ccc(N2C(=O)CCC(C(=O)O)C2c2cccs2)cc1 (stereo not drawn) ?
Six1-Eya2 inh: 6.5; CtBP-E1A blk: 2.6; TRPML1 inh: 7.6; TRPML1 agonist: 1.2; TRPV1 PAM: 1.6; D2 potentiator: -1.1

How did CCc1ccccc1NC(=S)Nc1cc(OC)c(NC(=O)C(C)C)cc1OC do in these assays?
Six1-Eya2 inh: -1.2; CtBP-E1A blk: -3.4; TRPML1 inh: 22.1; TRPML1 agonist: -0.8; TRPV1 PAM: -4.7; D2 potentiator: 6.5

How did Cn1cccc1C(=O)OCC(=O)c1cc2ccccc2o1 do in these assays?
Six1-Eya2 inh: -12.5; CtBP-E1A blk: -15.3; TRPML1 inh: -10.2; TRPML1 agonist: 0.6; TRPV1 PAM: -29.7; D2 potentiator: -8.6

How did CCN(CC)C(=O)Cn1cc(S(=O)(=O)CC(=O)Nc2cc(OC)ccc2OC)c2ccccc21 do in these assays?
Six1-Eya2 inh: 1.4; CtBP-E1A blk: 6.7; TRPML1 inh: -5.6; TRPML1 agonist: -0.4; TRPV1 PAM: -2.3; D2 potentiator: -1.8

Already shown: an excerpt of the list.
Results for O=C(NCc1ccc(F)c(F)c1)c1ccc(-c2ccc(F)c(F)c2)c2ccoc12 ?
Six1-Eya2 inh: 17.0; CtBP-E1A blk: 18.1; TRPML1 agonist: -0.3; D2 potentiator: -5.7

What do the screens show for `COc1ccc(Cn2c(=O)oc3ccc(C)cc32)cc1`?
Six1-Eya2 inh: 5.0; CtBP-E1A blk: 14.9; TRPML1 inh: -6.2; TRPML1 agonist: 0.3; TRPV1 PAM: -3.2; D2 potentiator: -4.2

How did COc1ccc(/C=N/Nc2cc(C)nc3c(C)cccc23)cc1 do in these assays?
Six1-Eya2 inh: -12.7; CtBP-E1A blk: -13.7; TRPML1 inh: -15.8; TRPML1 agonist: 0.2; TRPV1 PAM: -7.1; D2 potentiator: -2.8

Additional compounds follow.
How did COC(=O)c1c(NC(=O)c2ccccc2C(=O)O)sc2c1CCCC2 do in these assays?
Six1-Eya2 inh: -2.3; CtBP-E1A blk: -3.1; TRPML1 inh: 6.7&5.9; TRPML1 agonist: 0.9&0.0; D2 potentiator: -3.2

Results for CC(C)Oc1ccc(C(=O)N(Cc2ccco2)C2CCS(=O)(=O)C2)cc1 (stereo not drawn) ?
Six1-Eya2 inh: 4.4; CtBP-E1A blk: -0.1; TRPML1 inh: -7.3; TRPML1 agonist: 0.8; TRPV1 PAM: 5.2; D2 potentiator: -2.0

How did CCc1ccc2oc(C(=O)NCc3ccc(S(N)(=O)=O)cc3)c(C)c2c1 do in these assays?
Six1-Eya2 inh: 4.3; CtBP-E1A blk: 5.4; TRPML1 inh: 26.4; TRPML1 agonist: 1.3; TRPV1 PAM: -11.4; D2 potentiator: -3.9

Results for O=S(=O)(c1cc(F)ccc1F)N1CCN(c2ncccn2)CC1 ?
Six1-Eya2 inh: 3.0; CtBP-E1A blk: 6.6; TRPML1 inh: -4.4; TRPML1 agonist: 1.2; TRPV1 PAM: 15.2; D2 potentiator: -5.0

Results for COc1ccccc1CSc1nc2ccccc2[nH]1 ?
Six1-Eya2 inh: 1.6; CtBP-E1A blk: 10.7; TRPML1 inh: -8.0; TRPML1 agonist: 0.6; TRPV1 PAM: -5.8; D2 potentiator: 5.6

Results for O=C(NCc1ccc2c(c1)OCO2)c1ccc(CS(=O)Cc2ccc(Cl)cc2)o1 (stereo not drawn) ?
Six1-Eya2 inh: -0.1; CtBP-E1A blk: -2.8; TRPML1 inh: 37.7; TRPML1 agonist: 0.1; TRPV1 PAM: -7.4; D2 potentiator: -12.0

Results for CCN(CC)c1ccc(NC(=O)CN(C)Cc2cccs2)cc1 ?
Six1-Eya2 inh: inconclusive; CtBP-E1A blk: inconclusive; TRPML1 inh: -2.6; TRPML1 agonist: 1.1; TRPV1 PAM: -17.5; D2 potentiator: -12.5

How did O=C(COC(=O)c1ccc([N+](=O)[O-])o1)NCCCc1ccccc1 do in these assays?
Six1-Eya2 inh: -1.9; CtBP-E1A blk: 2.6; TRPML1 inh: 0.6; TRPML1 agonist: -0.7; D2 potentiator: 1.0

What do the screens show for `Cc1onc(-c2c(F)cccc2Cl)c1C(=O)N1CCCC1`?
Six1-Eya2 inh: -9.6; CtBP-E1A blk: 3.1; TRPML1 inh: 18.8; TRPML1 agonist: 0.4; TRPV1 PAM: 24.2; D2 potentiator: -38.6

How did CCOC(=O)c1snc2c(=O)[nH]cnc12 do in these assays?
Six1-Eya2 inh: 2.1; CtBP-E1A blk: 1.7; TRPML1 inh: -4.2; TRPML1 agonist: -0.1; TRPV1 PAM: -2.4; D2 potentiator: -1.1

How did Cc1nnc(SCC(=O)NC(C)c2ccccc2)[nH]c1=O (stereo not drawn) do in these assays?
Six1-Eya2 inh: 12.6; CtBP-E1A blk: 0.0; TRPML1 inh: -5.3; TRPML1 agonist: -0.1; TRPV1 PAM: 7.3; D2 potentiator: 8.9

Results for COc1ccccc1N1CCN(C(=O)C2CCN(C(=O)c3ccccc3C)CC2)CC1 ?
Six1-Eya2 inh: 2.0; CtBP-E1A blk: 0.9; TRPML1 inh: -12.2; TRPML1 agonist: -0.1; TRPV1 PAM: -0.4; D2 potentiator: -11.1

What do the screens show for `COc1ccc(CCNC(=O)CCc2cc(OC)c(OC)c(OC)c2)cc1`?
Six1-Eya2 inh: -2.8; TRPML1 inh: 7.7; TRPML1 agonist: 3.9; TRPV1 PAM: inconclusive; D2 potentiator: -9.1

What do the screens show for `CC1(C)OC(=O)C2=C(C[C@@H](CCC(F)(F)F)O[C@H]2c2ccc(F)cc2)O1`?
Six1-Eya2 inh: 6.2; CtBP-E1A blk: 10.4; TRPML1 inh: -26.8; TRPML1 agonist: 0.2; D2 potentiator: -0.2

What do the screens show for `COCCNC(=O)Cn1c(=O)n(CCCC(=O)NCc2ccc3c(c2)OCO3)c(=O)c2sccc21`?
Six1-Eya2 inh: -16.1; CtBP-E1A blk: 0.0; TRPML1 inh: -5.1; TRPML1 agonist: -0.7; TRPV1 PAM: 0.3; D2 potentiator: -6.7

What do the screens show for `COc1ccc(Br)cc1C(=O)Nc1ccccc1N1CCCC1`?
Six1-Eya2 inh: -7.1; TRPML1 inh: -18.6; TRPML1 agonist: -0.4; D2 potentiator: -13.5

What do the screens show for `CSCC(=O)N1CCC(n2nccc2NC(=O)CCCc2ccccc2)CC1`?
Six1-Eya2 inh: 3.4; CtBP-E1A blk: 9.7; TRPML1 inh: -4.5; TRPML1 agonist: 0.0; TRPV1 PAM: -3.9; D2 potentiator: 8.9

How did CC(=O)N(c1ccccc1)c1nc(/C=C/C(=O)O)cs1 do in these assays?
Six1-Eya2 inh: 6.3; CtBP-E1A blk: -1.1; TRPML1 inh: -22.4; TRPML1 agonist: 0.6; TRPV1 PAM: 4.5; D2 potentiator: -6.2
